Rango dissoc inh – prevents RanGTP from dissociating the Rango-importin beta complex; Potency, µM (titrated, usually from 46.1 µM), for inactives: at the top dose activity change, negative = inhibition; actives 0.071% (n = 340,000); Biochemical FRET Rango-importin beta, RanGTP-induced dissociation; active means falling FRET ratio curve, often poorly fitted, with flat reads before Ran was added; inconclusive means other falling curves, or compound fluorescence or quenching; inactive means flat or rising ratio curve;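 also: potency is read from the fitted curve at half-maximal effect; % of control where 0% means no effect; nearly all actives have a fitted effect of over 45% in size; -100% = wells without RanGTP and RCC1; the record marks most hits as doubtful in a second field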
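Rango/importin beta premix (0.1/0.25 uM final), PBS + 1 mM DTT + 0.02% Tween-20 + 0.1% BSA; cpd 5 min RT; FRET pre-read; + RanGTP-RCC1 (0.6 uM Ran, 2 mM GTP, 0.2 uM RCC1); 45 min RT; FRET post-read, ex 430, em 486/530 nm.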
miR-21 FLuc – raises the signal of a miR-21 reporter. HeLa miR-21 FLuc reporter, luciferase, 48 h. Potency, µM (top dose mostly 38.3 µM), inactives show at the top dose reporter change, positive = more light. 340,000 tested, under 10 active. AID 2288; active = well fitted rising curve with a large enough effect; inconclusive = small, poorly fitted or top-dose-only effect; inactive = no such curve, though single readings can be large or run the other way;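 also: % of control where 0% means no effect; miR-21 action dims this reporter so a rising signal means less miR-21 action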
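HeLa cells endogenously expressing miR-21, stably carrying CMV-driven firefly luciferase with a downstream miR-21 binding site, 2000 cells/well. Titrations up to approximately 40 uM, 48 hours; luciferase luminescence read.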
GLA inh pH 4.5 – inhibitors of human alpha-galactosidase A at pH 4.5 | purified enzyme, 4-MU-alpha-Gal fluorescence, pH 4.5 | activity change, negative = inhibition, % at 105 µM | 230,000 tested, under 10 active | AID 1467; inconclusive = small, poorly fitted or top-dose-only inhibition, or a rising curve; inactive = flat fitted curve, though single readings scatter; no compound was filed as active;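 also: 0% = full activity with enzyme and -100% = basal without enzyme; dose as in the result columns while the protocol names 77 µM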
Rango complex inh – inhibitors of Rango-importin beta complex formation; Q14974; Rango CFP/YFP FRET sensor + importin beta, 45 min; Potency, µM (titrated, usually from 92.2 µM), for inactives: top-dose inhibition of complex formation; actives 0.031% (n = 340,000); AID 540263; active = rising FRET ratio curve, often small or poorly fitted; inconclusive = mostly compound fluorescence or quenching in the first reads; inactive = flat curves in all reads;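 also: potency is read from the fitted curve at half-maximal effect; 0% = DMSO wells and 100% = buffer wells lacking importin beta; nearly all actives have a fitted effect of over 15% in size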
Target sequence (Q14974 whole entry, looked up): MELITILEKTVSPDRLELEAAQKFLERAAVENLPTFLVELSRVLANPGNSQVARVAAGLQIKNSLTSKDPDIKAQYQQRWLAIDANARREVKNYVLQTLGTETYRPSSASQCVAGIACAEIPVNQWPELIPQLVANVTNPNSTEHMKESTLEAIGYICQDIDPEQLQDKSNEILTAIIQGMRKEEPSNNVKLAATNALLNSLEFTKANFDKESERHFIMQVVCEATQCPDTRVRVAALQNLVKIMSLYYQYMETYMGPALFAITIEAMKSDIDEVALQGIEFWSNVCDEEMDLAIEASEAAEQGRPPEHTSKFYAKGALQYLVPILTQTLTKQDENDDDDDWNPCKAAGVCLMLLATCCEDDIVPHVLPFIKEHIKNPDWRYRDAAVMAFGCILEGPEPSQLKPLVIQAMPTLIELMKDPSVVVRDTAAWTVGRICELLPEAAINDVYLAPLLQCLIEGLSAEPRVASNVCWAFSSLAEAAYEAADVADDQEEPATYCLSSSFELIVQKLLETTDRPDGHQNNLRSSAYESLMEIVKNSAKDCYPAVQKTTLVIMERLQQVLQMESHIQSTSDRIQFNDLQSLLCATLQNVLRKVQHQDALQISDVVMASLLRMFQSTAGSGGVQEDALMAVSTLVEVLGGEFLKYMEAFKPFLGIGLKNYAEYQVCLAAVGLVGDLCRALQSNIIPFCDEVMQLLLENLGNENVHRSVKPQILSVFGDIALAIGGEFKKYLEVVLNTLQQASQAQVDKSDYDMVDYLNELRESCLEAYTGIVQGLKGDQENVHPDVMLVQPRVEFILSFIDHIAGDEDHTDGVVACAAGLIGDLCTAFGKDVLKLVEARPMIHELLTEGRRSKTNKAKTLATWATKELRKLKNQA
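FRET biosensor (snurportin 1 IBB flanked by EYFP and cerulean), 50 nM, with compound 5 min, then 0.125 microM importin beta in PBS, 1 mM DTT, 0.02% Tween-20, 0.1% BSA. CFP/YFP ratio read after 45 min at room temperature; pre-read flags interference.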
The depositor's hits bear a star; ? = inconclusive; . = not tested or not shown. A portion of the library. The share of hits here may be higher or lower than overall.

SMILES	Rango dissoc inh	miR-21 FLuc	GLA inh pH 4.5	Rango complex inh
O=C(CCn1nc(-c2ccccc2)ccc1=O)NCCCN1CCCCCC1	-3%	-6%	-9	7.4%
Cc1cccc(C(=O)NC(C(=O)Nc2nc(-c3ccccn3)cs2)C(C)C)c1 (stereo not given)	-10%	23%	0	-0.8%
CC(=O)c1ccc(NC(=S)N2CCCCCC2)cc1	-9%	-1%	7	2.6%
O=C(CCCCC(=O)Nc1ccccc1Cl)Nc1ccccc1Cl	-3%	0%	.	-1.0%
CC(C)(C)N1CC2([N+](=O)[O-])CN(C(C)(C)C)CC([N+](=O)[O-])(C1)C2	0%	-6%	-4	-0.9%
O=C(COc1ccc(-n2cnnn2)cc1)NCCc1ccc(F)cc1	-3%	-1%	-3	-2.6%
O=C(OCc1ccccc1Cl)C1CC(=O)N(Cc2ccco2)C1 (stereo not given)	-12%	.	.	0.1%
CC(=NNC(=S)Nc1ccccc1Cl)c1ccccn1	16%	.	.	2.2%
Cc1csc(=O)n1CC(=O)OCC(=O)NNC(=O)c1ccccc1	8%	0%	.	-1.7%
Cc1cccc(Cc2nnc(CCC(=O)N(CC3CC3)CC3CCCO3)o2)c1 (stereo not given)	-16%	-54%	-4	2.6%
CC(C)c1ccccc1OCC(=O)N(C)CC(=O)Nc1ccc(F)cc1	-17%	.	.	-0.2%
CCCCN(C(=O)c1cc(CN2C(=O)c3ccccc3C2=O)ccc1OC)c1c(N)n(CC(C)C)c(=O)[nH]c1=O	29%	.	.	-0.2%
Cc1cc(/C=C(\C#N)C(=O)NCc2ccco2)c(C)n1-c1cccnc1	-1%	-52%	-3	-1.7%
Cc1cccc2c1N(C(=O)c1ccco1)C(C)(C)c1ssc(=S)c1-2	-13%	2%	5	1.6%
O=C(CN(c1ccccc1)S(=O)(=O)c1ccccc1)N1CCOCC1	-12%	4%	1	3.2%
Cn1c(-c2ccccc2)cnc1SCC(=O)N1CCCc2ccccc21	22%	-26%	6	1.1%
O=S(Cc1cc(Sc2ccccc2)nc(-c2ccccc2)n1)c1ccccc1 (stereo not given)	1%	-1%	-10	-0.9%
Cc1ccc(C)c(CN2C(=O)CSc3ccc(C(=O)N4CCCC4)cc32)c1	0%	6%	.	3.4%
CCn1c(SCc2nc(-c3ccc(OC)c(OC)c3)no2)nnc1-c1cccs1	0%	13%	-4	3.2%
CC1SC(c2ccc(F)cc2)NC1=O (stereo not given)	25%	1%	-21	0.1%
COc1ccccc1NC(=O)C(=O)N/N=C/c1ccc([N+](=O)[O-])s1	-1%	-3%	1	-1.2%
CCC1CCC2(CC1)NC(=O)N(CC(=O)Nc1cccc(S(=O)(=O)N(C)c3ccccc3)c1)C2=O (stereo not given)	-2%	.	.	-1.1%
Cc1nnsc1C(=O)Nc1cccc(Cl)c1Cl	13%	-26%	-2	-4.6%
COc1ccccc1CN1C(=O)CCC1(C)C(=O)NCc1cccnc1 (stereo not given)	-4%	-3%	-10	1.1%
CN1CCN(C(=O)c2c(O)c3cccc4c3n(c2=O)CC4)CC1	-1%	-2%	6	-0.4%
(continued)
SMILES	Rango dissoc inh	miR-21 FLuc	GLA inh pH 4.5	Rango complex inh
COc1ccc(S(=O)(=O)Nc2ccc3c(c2)C(=O)N([C@H](C)CO)C[C@@H](C)[C@@H](CN(C)S(=O)(=O)c2ccc(Cl)cc2)O3)cc1	12%	.	.	-0.3%
C#CCNC(=O)C1=C[C@@H](C2CCCCC2)C[C@@H](OCc2ccc(CO)cc2)O1	-7%	-1%	-4	1.1%
Cc1sc2ncn(CC(=O)N3CCN(c4ccccc4)CC3)c(=O)c2c1S(=O)(=O)N1CCOCC1	1%	2%	.	0.0%
CC(C)CNC(=O)CC1Nc2ccccc2NC1=O (stereo not given)	19%	0%	8	-0.5%
CCC(C(=O)O)n1nc(-c2ccccc2)c2cc(Cl)ccc21 (stereo not given)	-7%	-3%	-3	5.3%
COc1ccccc1NC(=O)c1csc(-n2nc(C)cc2C(F)(F)F)n1	-4%	-6%	1	-3.8%
COc1ccc(Cl)cc1NC(=O)CN(C)CC(=O)Nc1ccc(Br)cc1	12%	-4%	-6	0.2%
Cn1c(N)c(S(=O)(=O)NCc2ccccc2)c(=O)n(C)c1=O	-38%	.	.	?
O=C(O)CSCC(=O)Nc1ccc(S(=O)(=O)N2CCCCC2)cc1	0%	-3%	1	-0.4%
Cc1ccc(NC(=O)C(C)S)cc1 (stereo not given)	11%	2%	-6	-1.6%
O=[N+]([O-])c1ccc(COc2ncnc3ccccc23)cc1	0%	-1%	1	-0.7%
CCCN(CC(=O)Nc1ccc(F)c(F)c1F)CC(=O)Nc1c(C)n(C)n(-c2ccccc2)c1=O	-2%	.	.	2.4%
Cc1ccc2c(c1)N(C(=O)c1ccco1)C(C)(C)c1ssc(=S)c1-2	8%	-5%	-3	3.0%
CCCCOCCCNC(=O)c1cccs1	8%	-12%	-3	0.7%
O=C(O)c1ccc(Nc2nc(-c3cccnc3)nc3ccccc23)cc1	.	-2%	-18	.
O=S(=O)(c1ccc(Br)s1)N1CCc2ccccc2C1	10%	-6%	0	-0.8%
COc1ccc(/C=N/NS(=O)(=O)c2ccc(C)cc2)cc1	-12%	-3%	.	1.5%
Cc1ccc[n+](C(C)C(=O)Nc2ccc(C)c([N+](=O)[O-])c2)c1 (stereo not given)	1%	0%	4	6.2%
Cc1ccccc1OCCC(=O)N(CC(=O)Nc1ccccc1C(F)(F)F)Cc1ccco1	2%	.	.	0.3%
CC1CN(C(=S)Nc2ccccc2F)CC(C)O1 (stereo not given)	15%	-1%	.	5.3%
CC(C#N)Sc1nnc(-c2ccccc2F)n1C1CC1 (stereo not given)	2%	4%	.	-0.6%
CCOC(=O)c1ccc(NC(=O)CCc2nnc3ccc(N4CCCC4)nn23)cc1	23%	-6%	.	-1.5%
CSc1nnc(-c2ccccc2SC)o1	15%	-7%	-11	0.4%
Clc1nc(NCCc2ccccc2)c2cn[nH]c2n1	1%	.	.	3.3%
COc1cccc(C(=O)NCC2CCCO2)c1 (stereo not given)	.	-15%	-17	.
The list goes on:
SMILES	Rango dissoc inh	miR-21 FLuc	GLA inh pH 4.5	Rango complex inh
CNC(=O)N/N=C(\N)c1ccccn1	3%	-24%	-3	2.1%
Cc1cnc(C(=O)Nc2ccc(N3CCCCC3)cc2)cn1	6%	-56%	-1	0.5%
Cc1nn(-c2ccccc2)c(C)c1[N+](=O)[O-]	4%	-18%	3	-0.5%
CC12CCC(C(=NO)C1=O)C2(C)C (stereo not given)	-4%	.	.	-1.2%
CC1(C)CC(=O)C(C=Nc2ccc3c(c2)OCO3)=C(O)C1	-5%	-20%	-2	-4.0%
CC(C)C(=O)Nc1cccc(C(=O)NCCc2ccc(S(N)(=O)=O)cc2)c1	1%	-1%	-1	-0.7%
O=C(Cc1cccc(NC(=O)C2CCCN(C(=O)C3CC3)C2)c1)Nc1ccc(C(=O)N2CCCCC2)cc1 (stereo not given)	-2%	.	.	0.2%
CC(C)CCNC(=O)C1CC(c2ccc(C(F)(F)F)cc2)=NO1 (stereo not given)	-13%	-7%	-5	-1.2%
Cc1csc(NC(=O)CN2CCCCCC2)n1	0%	-8%	-2	1.8%
COc1ccc(NC(=O)CCNC(=O)c2ccco2)cc1S(=O)(=O)N(C)C	-8%	-2%	.	-1.9%
Cc1ccc(C)c(N2CCN(C(=O)CCCCCn3c(=S)[nH]c4ccc(N5CCOCC5)cc4c3=O)CC2)c1	?	13%	.	?
O=C(Nc1ccc2c(c1)CCC2)Nc1ccccc1Cl	2%	-42%	.	1.0%
CC(=O)c1ccc(NC(=O)C(C)OC(=O)CCN=C2NS(=O)(=O)c3ccccc32)cc1 (stereo not given)	0%	.	.	0.5%
O=C1CC(C(=O)O)C2(CCCC2)O1 (stereo not given)	5%	.	.	6.6%
COC(=O)c1ccccc1NC(=O)CCCCCn1nnc2ccccc2c1=O	-13%	-3%	.	-1.1%
CC(=O)c1c(C)[nH]c(C(=O)Nc2nccs2)c1C	-7%	-20%	-8	-0.6%
CN(CC(=O)NC1CCCCC1)S(=O)(=O)c1ccc2c(c1)c(=O)n(C)c(=O)n2C	4%	-1%	.	-0.1%
O=C(/C=C/c1ccccc1)Nc1cccc(C(=O)NC2CC2)c1	13%	.	.	5.2%
CCOC(=O)c1ccc(NC(=O)CN(C)S(=O)(=O)c2ccc(OC)cc2)cc1	16%	-7%	-3	0.8%
CC1=CCC2([N+](=O)[O-])CN(CC(=O)O)CC1([N+](=O)[O-])C2 (stereo not given)	1%	-1%	-2	0.3%
COc1ccc(CN(C(=O)c2ccc3c(c2)OCCO3)C(C(=O)NC2CCCCC2)c2ccc3ncccc3c2)cc1 (stereo not given)	1%	-10%	8	-0.5%
CCCS(=O)(=O)n1nc(-c2ccccc2)cc1N	-2%	-21%	0	-4.6%
COc1cc(CCCN2C(=O)C(=O)NC[C@@H]2C(C)O)cc(OC)c1OC (stereo not given in full)	-7%	0%	5	-0.7%
CCCNc1nc(OCC(F)(F)F)nc(OCC(F)(F)F)n1	1%	-2%	6	3.9%
Cc1ccc(-c2csc(NC(=S)NC(=O)c3cccs3)n2)cc1	1%	-7%	0	3.8%

Entries of single compounds, looked up by structure. Screens in order: Rango dissoc inh | miR-21 FLuc | GLA inh pH 4.5 | Rango complex inh
O=C(Nc1ccc2c(c1)CCC2)Nc1ccccc1Cl in the list: 2% | -42% | . | 1.0%
CN(CC(=O)NC1CCCCC1)S(=O)(=O)c1ccc2c(c1)c(=O)n(C)c(=O)n2C in the list: 4% | -1% | . | -0.1%
Cc1csc(NC(=O)CN2CCCCCC2)n1 in the list: 0% | -8% | -2 | 1.8%
CC(C)C(=O)Nc1cccc(C(=O)NCCc2ccc(S(N)(=O)=O)cc2)c1 in the list: 1% | -1% | -1 | -0.7%
CNC(=O)N/N=C(\N)c1ccccn1 in the list: 3% | -24% | -3 | 2.1%

(list continues)
SMILES	Rango dissoc inh	miR-21 FLuc	GLA inh pH 4.5	Rango complex inh
Cc1ccc(OCCC(=O)N(CCC(C)C)c2c(N)n(Cc3ccccc3)c(=O)[nH]c2=O)cc1	-15%	.	.	-2.1%
CC(C)Cn1c(SC(C)C(=O)Nc2ccc(N3CCOCC3)cc2)nc2ccccc21 (stereo not given)	-10%	-7%	-10	-1.8%
CN1CCN(C(=O)CCc2nc3ccccc3c(=O)[nH]2)CC1	6%	-1%	-4	-3.6%
CCOC(=O)CN(C(=O)CNC(=O)c1cccs1)C(C(=O)NC1CCCCC1)c1cccnc1 (stereo not given)	-7%	-7%	-4	2.5%
O=C(CN(Cc1ccc(F)cc1)C(=O)c1csnn1)NC1CCCC1	-14%	0%	.	?
Cc1ccc(S(=O)(=O)N2CCCN(c3nc4cc(C)ccc4cc3C#N)CC2)cc1	?	-4%	-4	?
O=[N+]([O-])c1cccc(C2CC(c3ccccc3)=NN2c2ccccc2)c1 (stereo not given)	13%	-17%	.	-2.2%
c1ccc(-n2cnc3cc(NCc4cccs4)ccc32)cc1	-4%	-12%	-22	-0.9%
COc1ccccc1/C=N/Nc1cc(N(C)C)nc(N(C)C)n1	-1%	0%	-16	-3.8%
NC(=O)CNC1CC(=O)N(CCc2ccccc2)C1=O (stereo not given)	-21%	-1%	-1	0.5%

Among those listed so far, four contain a CF3 group:
SMILES	Rango dissoc inh	miR-21 FLuc	GLA inh pH 4.5	Rango complex inh
COc1ccccc1NC(=O)c1csc(-n2nc(C)cc2C(F)(F)F)n1	-4%	-6%	1	-3.8%
Cc1ccccc1OCCC(=O)N(CC(=O)Nc1ccccc1C(F)(F)F)Cc1ccco1	2%	.	.	0.3%
CC(C)CCNC(=O)C1CC(c2ccc(C(F)(F)F)cc2)=NO1 (stereo not given)	-13%	-7%	-5	-1.2%
CCCNc1nc(OCC(F)(F)F)nc(OCC(F)(F)F)n1	1%	-2%	6	3.9%

Assay outcomes: PubChem, National Center for Advancing Translational Sciences (NCATS)
